# MenB inh: blocks the Mycobacterium tuberculosis MenB enzyme | P9WNP5 | MenB enzyme assay, absorbance read-out; some hits fall short of the stated cut | inhibition, %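 (about 12 µg/mL by stock and volumes)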 | 100,000 compounds, 0.43% hits;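 active means mean of two replicates above 30%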;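 further: 0% = no compound and 100% = wells with inactive enzyme; the first replicate is given; strong numbers were not always called active; inactives centre near -10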
# Polio RdRp inh: poliovirus RNA polymerase inhibition. P03300. poliovirus polymerase elongation, fluorescence polarization; stronger effect = lower value. % elongation, % (compound at 16.7 µg/mL). 150,000 compounds, 0.66% hits. AID 588519; in the data active means % elongation below about 90%; further: some results filed as inactive read as strong as hits
# Target sequence (P03300 1749-2209 limits assumed): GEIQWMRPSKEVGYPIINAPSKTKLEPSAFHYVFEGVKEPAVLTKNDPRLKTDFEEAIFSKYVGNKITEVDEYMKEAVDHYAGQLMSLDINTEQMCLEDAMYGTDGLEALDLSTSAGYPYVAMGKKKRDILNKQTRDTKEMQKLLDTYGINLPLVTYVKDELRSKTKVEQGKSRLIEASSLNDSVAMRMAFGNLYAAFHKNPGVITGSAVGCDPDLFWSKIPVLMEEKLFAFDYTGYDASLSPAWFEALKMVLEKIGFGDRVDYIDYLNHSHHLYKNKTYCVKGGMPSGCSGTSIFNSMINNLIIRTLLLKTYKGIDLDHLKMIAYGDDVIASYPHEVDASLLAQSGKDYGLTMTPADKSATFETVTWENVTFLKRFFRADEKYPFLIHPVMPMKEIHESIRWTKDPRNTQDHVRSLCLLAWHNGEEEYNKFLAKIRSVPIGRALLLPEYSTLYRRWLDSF
# MbtI inh: MbtI salicylate synthase inhibition; purified MbtI enzyme, fluorescence intensity read-out; 100,000 compounds, 0.89% hits; inhibition, %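 (about 17 µg/mL by stock and volumes)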;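 active means above 50% in both replicates, above 80% if mildly self-fluorescent; inactive means the rest, strongly fluorescent compounds included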;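 further: 0% = mean of negative and 100% = mean of positive controls; one replicate is shown; some compounds called inactive have numbers as strong as hits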
# Target sequence (P9WFX0 whole entry, looked up): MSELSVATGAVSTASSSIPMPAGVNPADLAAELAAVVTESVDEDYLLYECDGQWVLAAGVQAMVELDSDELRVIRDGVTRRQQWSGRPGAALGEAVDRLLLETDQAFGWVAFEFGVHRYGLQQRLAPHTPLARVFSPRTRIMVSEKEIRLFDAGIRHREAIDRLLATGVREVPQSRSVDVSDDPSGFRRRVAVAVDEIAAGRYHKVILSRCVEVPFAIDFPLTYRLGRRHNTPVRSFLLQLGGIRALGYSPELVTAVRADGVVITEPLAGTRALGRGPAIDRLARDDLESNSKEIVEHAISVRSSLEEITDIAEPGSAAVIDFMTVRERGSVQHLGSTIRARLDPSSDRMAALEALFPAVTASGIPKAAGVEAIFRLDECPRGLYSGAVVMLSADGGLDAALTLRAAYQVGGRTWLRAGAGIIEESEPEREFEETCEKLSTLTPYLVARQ
# Polio RdRp inh intensity: further read-out of Polio RdRp inh, marked with its call; % elongation; measured here: total intensity read-out; formula for this scale not given here;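 total fluorescence in place of polarization; lower means less elongation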
# The depositor's hits bear a star; x = not tested or not shown. The order is random; overall some 1.9% were active at least once.
# Field names: A = MenB inh; B = Polio RdRp inh; C = Polio RdRp inh intensity; D = MbtI inh
O=C(Cc1nc2ccccc2s1)c1ccc(O)cc1O
  A: -27	B: 95	C: 103	D: 11

C=CCN1C(=O)/C(=C/c2ccco2)S/C1=N/c1nccs1
  A: -22	B: 101	C: 104	D: 6

CCOc1ccc2nc(NCCNC(=O)c3cc(OC)c(OC)c(OC)c3)c(C#N)cc2c1
  A: -11	B: 102	C: 103	D: -4

O=C1CCc2cc(S(=O)(=O)N3CCCC3)cc3c2N1CCC3
  A: -6	B: 103	C: 105	D: 6

CCC(=O)Nc1cc(OC)c(OC)c(OC)c1
  A: -35	B: 99	C: 106	D: -22

CCN(c1ccccc1)S(=O)(=O)c1ccc(Oc2ccc(-n3ccnc3)cc2)nc1
  A: -15	B: 104	C: 98	D: 2

CC(C)(O)c1cn2ccccc2n1
  A: 10	B: 102	C: 99	D: x

CCCC(NC(=O)c1ccc(Br)o1)c1nc2ccccc2[nH]1 (stereo not given)
  A: x	B: 101	C: 108	D: -3

c1ccc(-n2nnnc2NC2CCCCC2)cc1
  A: 11	B: 102	C: 100	D: x

C=CCC1CCCCC12NC(=O)N(c1ccccc1)N2 (stereo not given)
  A: 8	B: 104	C: 102	D: 0

# (list continues)
# Field names: A = MenB inh; B = Polio RdRp inh; C = Polio RdRp inh intensity; D = MbtI inh
CN1CCN(c2oc(COc3ccccc3F)nc2C#N)CC1
  A: -8	B: 101	C: 104	D: -9

CC(C(=O)Nc1ccccc1)N(c1nccs1)S(=O)(=O)c1ccccc1 (stereo not given)
  A: -10	B: 109	C: 119	D: -4

CCCNC(=O)C1CCCN1 (stereo not given)
  A: 11	B: 101	C: 98	D: 24

CN(C)/C=N/c1sc2c(c1C#N)CCCC2
  A: -24	B: 102	C: 105	D: 0

COCc1nn2cc(-c3ccc(Br)cc3)nc2s1
  A: 1	B: 100	C: 101	D: -11

O=C(CN(c1ccccc1)S(=O)(=O)c1ccccc1)N1CCCC1
  A: -61	B: 105	C: 101	D: -15

CCN(CC)C(=O)C1Sc2nnc(-c3ccccc3)n2NC1c1ccccc1 (stereo not given)
  A: 12	B: x	C: x	D: 11

N#CCC(=O)Nc1ccc(N2CCOCC2)cc1
  A: x	B: 104	C: 104	D: 3

O=C(CC(=O)C(F)(F)F)c1ccccc1
  A: -21	B: 105	C: 105	D: -7

NC(=O)c1oc2ccccc2c1NC(=O)C1COc2ccccc2O1 (stereo not given)
  A: -25	B: 100	C: 104	D: -4

# (next part)
# Field names: A = MenB inh; B = Polio RdRp inh; C = Polio RdRp inh intensity; D = MbtI inh
O=C(Nc1ccc(S(=O)(=O)NCc2ccco2)cc1)c1ccc(=O)[nH]n1
  A: -7	B: 99	C: 108	D: -4

O=C(CCc1ccccc1)NCCN1CCN(C(=O)CCc2ccccc2)CC1
  A: -1	B: 101	C: 104	D: x

c1ccc(CNc2nnnn2-c2ccccc2)cc1
  A: -4	B: 101	C: 101	D: -10

COCCN1C(=O)c2ccccc2C(C(=O)Nc2ccc3c(c2)OCCO3)C1c1c[nH]c2ccccc12 (stereo not given)
  A: -3	B: 99	C: 105	D: 4

CCc1ccc(NC(=O)C(Cc2ccccc2)n2cccc2)cc1 (stereo not given)
  A: -21	B: 102	C: 95	D: 3

O=C(Cn1c(=O)oc2cc(S(=O)(=O)N3CCCC3)ccc21)Nc1cccnc1
  A: -3	B: 103	C: 104	D: 6

CCOc1ccccc1C(=O)NCc1nc(-c2ccccc2)no1
  A: -11	B: 103	C: 103	D: 0

CCn1c(C2CC(=O)N(C(C)(C)C)C2)nc2ccccc21 (stereo not given)
  A: -20	B: 103	C: 105	D: -1

CCCOc1ccc(C(=O)Nc2c(NC)c3ccccc3oc2=O)cc1
  A: -1	B: 102	C: 106	D: -2

O=C(NC1CCCC1)c1c(O)nc2ccccn2c1=O
  A: -18	B: 101	C: 102	D: 2

# Further compounds follow.
# Field names: A = MenB inh; B = Polio RdRp inh; C = Polio RdRp inh intensity; D = MbtI inh
O=C(O)CC1SC(=Nc2cccc(C(F)(F)F)c2)NC1=O (stereo not given)
  A: -15	B: 99	C: 98	D: -2

C[C@@H]1CC([C@H](O)CC2CC(=O)NC(=O)C2)C(=O)[C@@H](C)C1 (stereo not given in full)
  A: x	B: 101	C: 102	D: -18

Cc1cc(C)n2nc(S(=O)(=O)Nc3ccccc3C)nc2n1
  A: -8	B: 108	C: 105	D: x

CN(C)CCOC(=O)CC12CC3CC(C1)CC(CC(=O)OCCN(C)C)(C3)C2
  A: -5	B: 105	C: 102	D: -4

O=C(O)CCCOc1ccc(Cl)cc1
  A: -48	B: 103	C: 102	D: -6

Cc1cc(C)cc(N2C(=O)CC(n3ccnc3)C2=O)c1 (stereo not given)
  A: -4	B: 104	C: 108	D: -16

O=C(c1cccc(Cl)c1)N1CCOCC1
  A: 5	B: 105	C: 107	D: x

Cc1ccc(Sc2c(C(=O)NCc3ccco3)[nH]c3ccccc23)cc1
  A: -30	B: 99	C: 103	D: 19

CN(C(=S)Nc1cccnc1)c1ccc(O)cc1
  A: -8	B: 99	C: 109	D: -1

O=C(CCn1c(=O)oc2ccccc21)N1CCc2ccccc21
  A: 9	B: 102	C: 102	D: -7

# Taken from above for reference:
# Field names: A = MenB inh; B = Polio RdRp inh; C = Polio RdRp inh intensity; D = MbtI inh
Cc1ccc(Sc2c(C(=O)NCc3ccco3)[nH]c3ccccc23)cc1
  A: -30	B: 99	C: 103	D: 19

CN(C(=S)Nc1cccnc1)c1ccc(O)cc1
  A: -8	B: 99	C: 109	D: -1

O=C(CCn1c(=O)oc2ccccc21)N1CCc2ccccc21
  A: 9	B: 102	C: 102	D: -7

# (continued)
# Field names: A = MenB inh; B = Polio RdRp inh; C = Polio RdRp inh intensity; D = MbtI inh
COC(=O)c1ccc(N)s1
  A: -9	B: 101	C: 112	D: 7

CCOC(=O)Nc1nc2ccc(C)cc2s1
  A: -24	B: 100	C: 102	D: 12

Cc1csc(NC(=O)c2ccc(S(=O)(=O)N3CCc4ccccc4C3)cc2)n1
  A: -18	B: 110	C: 117	D: -2

CCNc1cccc(C)c1
  A: x	B: 101	C: 105	D: -5

CCc1nnc2c3ccccc3nc(-c3ccncc3)n12
  A: x	B: 104	C: 99	D: 1

O=C(O)CSc1ccc2c(c1)CCC2
  A: -32	B: 101	C: 88	D: 14

CC(NC(=S)NCCc1ccc(S(N)(=O)=O)cc1)C12CC3CC(CC(C3)C1)C2 (stereo not given)
  A: -23	B: 101	C: 103	D: 22

O=C(NCc1cccs1)c1cc(=O)n(Cc2ccc(Cl)cc2)c2ccccc12
  A: -24	B: 100	C: 101	D: 12

COc1ccc(-n2ncc(C(=O)NCc3ccc(-c4cccs4)cc3)c2C)cc1
  A: 11	B: 104	C: 117	D: -3

CC[C@H]1OC(=O)[C@H](C)[C@@H](O[C@H]2C[C@@](C)(OC)[C@@H](O)[C@H](C)O2)[C@H](C)[C@@H](O[C@@H]2O[C@H](C)C[C@H](N(C)C)[C@H]2O)[C@](C)(O)C[C@@H](C)[C@@H]2N[C@@H](COCCOC)O[C@H]([C@H]2C)[C@]1(C)O
  A: 0	B: 100	C: 104	D: -9

# 6 compounds picked at random from those above:
# Field names: A = MenB inh; B = Polio RdRp inh; C = Polio RdRp inh intensity; D = MbtI inh
CCNc1cccc(C)c1
  A: x	B: 101	C: 105	D: -5

CN(C)CCOC(=O)CC12CC3CC(C1)CC(CC(=O)OCCN(C)C)(C3)C2
  A: -5	B: 105	C: 102	D: -4

CCOc1ccccc1C(=O)NCc1nc(-c2ccccc2)no1
  A: -11	B: 103	C: 103	D: 0

N#CCC(=O)Nc1ccc(N2CCOCC2)cc1
  A: x	B: 104	C: 104	D: 3

CN(C(=S)Nc1cccnc1)c1ccc(O)cc1
  A: -8	B: 99	C: 109	D: -1

Cc1cc(C)cc(N2C(=O)CC(n3ccnc3)C2=O)c1 (stereo not given)
  A: -4	B: 104	C: 108	D: -16

# (more compounds)
# Field names: A = MenB inh; B = Polio RdRp inh; C = Polio RdRp inh intensity; D = MbtI inh
O=C(Nc1cccc(-n2cnnn2)c1)C1CCCN1C(=O)c1cccs1 (stereo not given)
  A: -8	B: 103	C: 106	D: -6

Cc1ccc(S(=O)(=O)N2CCN(C(=O)C3CCC(=O)N3)CC2)cc1 (stereo not given)
  A: -4	B: 102	C: 108	D: -2

CN(C)C1(CNC(=O)c2ccc3c(c2)SC2=NS(=O)(=O)CCN23)CCCCC1
  A: -3	B: 103	C: 108	D: 3

C#C[C@]1(OC(C)=O)CC[C@H]2[C@@H]3CCC4=C[C@@H](OC(C)=O)CC[C@@H]4[C@H]3CC[C@@]21C
  A: -15	B: 100	C: 103	D: -16

CC(C)(C)OC(=O)N/N=C1\CCCCc2ccccc21
  A: 7	B: 103	C: 95	D: 3

CN(C)C(=O)COC(=O)c1cccc(CN2C(=O)c3ccccc3C2=O)c1
  A: -9	B: 103	C: 103	D: -10

CCc1cccc(C)c1NC(C)=O
  A: 4	B: 106	C: 103	D: x

COc1ccc2c(C)cc(SCc3nc4ccccc4c(=O)n3CC#N)nc2c1
  A: -18	B: 116	C: 154	D: 14

CCOC(=O)/C(C#N)=C1\Nc2ccccc2C1=O
  A: -28	B: 104	C: 98	D: 3

CSc1cccc(NS(=O)(=O)c2ccccc2)c1
  A: 1	B: 101	C: 105	D: 1

# New compounds follow
# Field names: A = MenB inh; B = Polio RdRp inh; C = Polio RdRp inh intensity; D = MbtI inh
COc1ccc(C2CC(=O)c3cnc(NCCN4CCOCC4)nc3C2)cc1 (stereo not given)
  A: -21	B: 101	C: 101	D: 4

O=C(NC1CCCC1)c1ccc2c(c1)N(Cc1ccccc1)C(=O)CS2
  A: -18	B: 100	C: 104	D: -2

CN1C=NC2C1C(=O)N(CCn1c(=O)c3c(ncn3C)n(C)c1=O)C(=O)N2C (stereo not given)
  A: -9	B: 100	C: 100	D: -4

CCCn1c(SCc2cc(=O)oc3ccc4ccccc4c23)n[nH]c1=O
  A: -1	B: 100	C: 103	D: 80

CCCCS(=O)(=O)Nc1ccc(C(=O)OC(C)C)cc1
  A: -5	B: 101	C: 102	D: -16

N#CC1C(C#N)N2CCCN2C1c1ccc(Cl)cc1 (stereo not given)
  A: -36	B: 101	C: 99	D: 0

CCCCN1C(=O)c2ccc(C(=O)Nc3c(N)n(CCCC)c(=O)n(C)c3=O)cc2C1=O
  A: -1	B: 104	C: 101	D: -4

CC(Sc1nc2cc(Cl)ccc2c(=O)n1Cc1ccco1)C(=O)N1CCc2ccccc2C1 (stereo not given)
  A: -14	B: x	C: x	D: 26

COc1ccccc1NC(=O)N1CCN2C(=O)c3ccccc3C12c1ccccc1 (stereo not given)
  A: 2	B: 103	C: 103	D: -11

CC(OC(=O)c1ccco1)C(=O)Nc1ccc(Cl)cc1 (stereo not given)
  A: -6	B: 104	C: 103	D: -9

# Later entries:
# Field names: A = MenB inh; B = Polio RdRp inh; C = Polio RdRp inh intensity; D = MbtI inh
CCOc1cc(C(F)(F)F)c(C(=O)N(C)Cc2c(OC)cccc2OC)cn1
  A: -13	B: 100	C: 102	D: -7

Cc1noc(C)c1COC(=O)/C(=C/c1cccs1)c1cccs1
  A: -29	B: 104	C: 107	D: -3

CCc1ccccc1NC(=O)C1CCCN1S(=O)(=O)c1ccc2c(c1)n(C)c(=O)c(=O)n2C (stereo not given)
  A: 8	B: 102	C: 104	D: -2

CS(=O)(=O)c1ccccc1C(=O)N1CCN(Cc2ccccc2)CC1
  A: -16	B: 101	C: 99	D: -16

CCNC(=S)N1CCC(C(N)=O)CC1
  A: 19	B: 102	C: 103	D: -8

Cc1nc(/N=C(\NC(=O)c2ccccc2)Nc2ccccc2)[nH]c(=O)c1C
  A: 6	B: 101	C: 105	D: -9

Cc1ccc(-c2cn3cccnc3n2)cc1NC(=O)c1ccccc1
  A: -5	B: 102	C: 109	D: 101

O=C(c1ccccc1NS(=O)(=O)c1ccc(F)cc1)N1CCCCC1
  A: x	B: 103	C: 98	D: -1

C=CCOC(=O)C1=C(C)NC(SCC(=O)OCC)=C(C#N)C1c1cccs1 (stereo not given)
  A: -24	B: 103	C: 106	D: -6

O=C(c1ccc(Cn2c(=S)[nH]c3cc4c(cc3c2=O)OCO4)cc1)N1CCN(c2ncccn2)CC1
  A: 7	B: 99	C: 101	D: -23

# Additional entries
# Field names: A = MenB inh; B = Polio RdRp inh; C = Polio RdRp inh intensity; D = MbtI inh
COC(=O)c1ccc(CSc2nc3ccc(Cl)cc3[nH]2)o1
  A: -16	B: 105	C: 98	D: 4

CCn1c(COC(=O)CCc2ccc(OC)c(OC)c2)nc2cc(S(=O)(=O)N(C)C)ccc21
  A: 0	B: 106	C: 107	D: -6

COc1ccc(N2CCN(CCCNC(=O)CN3C(=O)CCSc4ccccc43)CC2)cc1
  A: -19	B: 102	C: 106	D: -6

Cc1csc(=O)n1CCCC(=O)O
  A: 1	B: x	C: x	D: -1

CCOc1ccc(/C=C/C(=O)Nc2cc3c(cc2N2CCCCC2)n(C)c(=O)c(=O)n3C)cc1
  A: 13	B: 100	C: 102	D: -5

Cc1csc(N(C)C(=O)CSc2nnc(COc3cccc4ccccc34)o2)n1
  A: -71	B: 105	C: 103	D: 4

CN(C)C=Nc1cc(Cl)c(-n2cccc2)cc1Oc1ccc(Cl)cc1
  A: -19	B: 107	C: 94	D: -4

CCOC(=O)Cc1ccc(NC(=O)N2CCC(CN3CCc4ccccc4C3)CC2)cc1
  A: -14	B: 103	C: 108	D: -9

O=c1[nH]c(Cn2c(-c3cncs3)nc3ccccc32)nc2ccccc12
  A: 2	B: 101	C: 110	D: -25

CCOC(=O)C1CCCN(C(=O)S(=O)(=O)c2ccc(-c3csc(C)n3)s2)C1 (stereo not given)
  A: -6	B: 100	C: 104	D: 3

# Screening data: PubChem BioAssay, ICCB-Longwood Screening Facility, Harvard Medical School
